Bioassay records (PubChem BioAssay)
V. cholerae motility = Vibrio cholerae motility inhibitors, OD read-out (AID 588778); Vibrio cholerae motility, OD read-out; higher % means a stronger effect; test concentration not given here; primary cut-off and reference of the scale not given here; strong numbers were not always called active; inhibition, %, or IC50 in µg/mL where a hit was titrated; 10,000 tested, under 10 active; in the data active means confirmed in a dose series; inconclusive means primary hit not retested
V. cholerae motility viability = second read-out of V. cholerae motility, no call of its own (marks repeat the call); inhibition, %; measured here: bacterial viability at 10 ug/mL;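 higher means fewer living bacteria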
Active calls of the source: *; u = inconclusive; x = not tested or not shown.

SMILES	V. cholerae motility	V. cholerae motility viability
CC(C)(C)C(=O)Nc1ccccc1NC(=O)C(C)(C)C	-6%	-5
Cc1cc(S(=O)(=O)N2CCOCC2)ccc1NC(=O)c1ccccc1I	-4%	-2
O=C(NC1CC1c1ccccc1)C12CC3CC(CC(C3)C1)C2 (configuration not stated)	5%	-2
FC(F)(F)c1nnc(N2CCN(C3c4ccccc4-c4ccccc43)CC2)s1	-5%	0
Clc1ccc2c(N3CCCC3)ccnc2c1	7%	3
COc1ccccc1C1C(C#N)=C(N)Sc2c1c(=O)oc1ccccc21 (configuration not stated)	-17%	-14
CC(=O)Oc1ccccc1-c1ccccc1	17%	7
Cc1cc(C)nc(N/C(=N\C(=S)Nc2ccccc2)Nc2ccc(C)c(Cl)c2)n1	8%	8
O=C(CSc1nnc(SCC(=O)NCC(=O)c2ccccc2)s1)NCC(=O)c1ccccc1	-6%	-5
Brc1ccc(CSc2nnc(Cc3c[nH]c4ccccc34)o2)cc1	0%	0
O=C(Nc1cccc(F)c1)N1CCN(C(c2ccccc2)c2ccccc2)CC1	3%	33
COC(=O)C1CCN(C(=O)C(Sc2ccccc2)c2ccccc2)CC1 (configuration not stated)	23%	-5
COC(=O)C1CCN(C(=O)C(C)Oc2ccc(Cl)cc2Cl)CC1 (configuration not stated)	4%	2
COCC(C)NCc1cc(C)c(OC)cc1C (configuration not stated)	-2%	1
Cc1ccc(C2=NN(C(=O)C3CCCO3)C(c3ccccc3F)C2)cc1 (configuration not stated)	-2%	0
Cc1ccccc1C(=O)N1CCN(c2ccc(NC(=O)c3ccccc3[N+](=O)[O-])cc2)CC1	7%	3
O=C1Nc2cc(C(F)(F)F)ccc2N2CCCC12 (configuration not stated)	3%	6
Cc1cccc(-c2cc(C(=O)Nc3ccccc3[N+](=O)[O-])c3ccccc3n2)c1	6%	-1
Cc1cc(NC(=O)c2ccc(Br)c(S(=O)(=O)N3CCCC3)c2)no1	-2%	-6
Cc1cc(NC(=O)c2ccccc2Cl)c(OC(=O)c2ccccc2Cl)cc1C	-6%	-9
COC(CCN(C)C)(c1ccccc1)c1ccccc1	19%	-7
CC1(C(=O)N2CCN(Cc3ccc4c(c3)OCO4)CC2)CC1(Cl)Cl (configuration not stated)	-1%	-5
N#Cc1c(-c2ccco2)nc(SCc2ccc(F)cc2)[nH]c1=O	5%	-3
CCOC(=O)CCn1ccc(=O)[nH]c1=O	-3%	-4
Cc1n[nH]c(C)c1N1C(=O)c2cccc3cc([N+](=O)[O-])cc(c23)C1=O	10%	1
O=C(NC1CCCc2ccccc21)c1cc(-c2cccnc2)nc2ccc(Cl)cc12 (configuration not stated)	-6%	3
O=C(NCCSC1CCCCC1)c1ccco1	21%	7
O=C(c1ccncc1)c1ccc(Br)cc1	19%	0
CN(CCc1ccccn1)C(=S)Nc1ccc(Cl)cc1Cl	16%	20
COC(=O)c1cc(C)sc1NC(=S)N1CCCCCC1	-10%	-3

Pulled by structure from the entries so far:
SMILES	V. cholerae motility	V. cholerae motility viability
O=C(NC1CCCc2ccccc21)c1cc(-c2cccnc2)nc2ccc(Cl)cc12 (configuration not stated)	-6%	3
CCOC(=O)CCn1ccc(=O)[nH]c1=O	-3%	-4
O=C(c1ccncc1)c1ccc(Br)cc1	19%	0

Further entries follow.
SMILES	V. cholerae motility	V. cholerae motility viability
Cc1ccc(C)n1NC(=O)c1ccc(F)cc1	15%	6
CCOc1ccc2oc(-c3ccccc3)c(C(=O)NCCc3c[nH]c4ccccc34)c2c1	-39%	-15
CC1=NN(c2nc3ccccc3[nH]2)C(=O)C1CCC(C)C (configuration not stated)	72%	23
Clc1c(OCCN2CCOCC2)ccc2ccccc12	13%	-2
Cn1ccc(NC(=O)Nc2cccc(C(F)(F)F)c2)n1	-3%	-4
C=CCNC(=O)c1ccc(C(C)C)cc1	3%	1
COc1ccc(S(=O)(=O)NC(C)C(=O)NCc2ccccn2)cc1Cl (configuration not stated)	-1%	-2
COc1ccc2c(c1)CC/C2=N/OC(=O)c1cc(Cl)ccc1OC	2%	-3
COC(=O)c1ccc(NC(=O)CSc2nc(C(F)(F)F)cc(=O)[nH]2)cc1	-5%	-1
NC(=O)C1CCN(C(=O)COc2ccc(Cl)cc2Br)CC1	2%	-4
O=C(c1ccccc1)c1ccc2[nH]c(=O)c(=O)[nH]c2c1	14%	-4
COc1ccccc1OCCn1cc(/C=C2/SC(=S)N(c3ccccc3)C2=O)c2ccccc21	0%	-3
CN(C)Cc1cc(CN(C)C)c(O)c(-c2ccccc2)n1	-22%	-10
O=C(ON1C(=O)c2ccccc2C1=O)c1ccccc1I	-13%	-8
CNc1nc(SC(C)C(=O)Nc2ccc(Cl)c(Cl)c2)nc(N2CCOCC2)n1 (configuration not stated)	-2%	-4
O=C(Nc1ccc(-c2cn3ccccc3n2)cc1)c1ccccc1F	17%	2
O=C(Nc1ccccc1Sc1ccccc1)c1ccc(Br)cc1	-12%	-10
CC(C)CNC(=O)CC(NCC(C)C)C(=O)O (configuration not stated)	-5%	-4
Cc1cc(C)n2c(SCc3cccs3)nnc2n1	17%	2
CCOC(=O)C(CCCOc1ccc(Cl)cc1)C(=O)OCC	10%	-1
S=C(NCc1ccco1)NNC(=S)Nc1ccc(Cl)cc1	13%	5
O=C(NC(=S)N1CCN(c2ccc([N+](=O)[O-])c(NCc3ccco3)c2)CC1)c1cccs1	-14%	-3
COC(=O)Cc1ccc(NC(=S)NC2CC(C)(C)NC(C)(C)C2)cc1	2%	-6
C=CCOc1cccc(C(=O)Nc2ccc(Br)cc2F)c1	-2%	6
Cc1ccc2cc(C)c(N3CCN(c4ccc(F)cc4)CC3)nc2c1	1%	-5
COc1ccc(S(=O)(=O)N(C(C)=O)c2ccc3oc4c(c3c2)CC(C)CC4)cc1[N+](=O)[O-] (configuration not stated)	-7%	-7
Cc1cc(C)cc(NC(=O)NNC(=S)NC2CCCCC2)c1	0%	-2
O=S(=O)(Nc1cc(Cl)c(O)c2ccccc12)c1cccs1	65%	30
Cc1nn(C(=O)N2CCOCC2)c(C)c1CN1C(=O)c2ccccc2C1=O	6%	-1
O=C(CSc1nc(-c2ccccc2)cc(=O)[nH]1)Nc1ccccc1F	-4%	-6
O=CN1N=C(c2ccc(Cl)cc2)CC1(O)C(F)(F)F (configuration not stated)	15%	5
O=C(NCCCCC(NC(=O)C1CCCCC1)C(=O)O)c1ccccc1 (configuration not stated)	4%	12
COc1ccc2nc(SCc3cnc(C)nc3N)[nH]c2c1	9%	0
COc1ccc(-n2cnc3cc(NS(=O)(=O)c4ccc(Br)cc4)ccc32)cc1	-5%	-4
O=C(Nc1oc2ccccc2c(=O)c1CN1CCCCC1)C(Cl)(Cl)Cl	23%	-6
C=CCN(CC=C)CCCOc1cccc2ccccc12	15%	0
N#Cc1c(-c2ccco2)[nH]c(=O)[nH]c1=O	-2%	-6
O=[N+]([O-])c1cc(C(F)(F)F)ccc1NCc1ccccn1	-10%	-7
O=C1CCN(C(=O)c2ccccc2)C2CCCCC12 (configuration not stated)	-23%	-17
NC(=O)CCN1CCCCC1c1cccnc1 (configuration not stated)	0%	-10
O=C(NNC(=O)c1cc(-c2ccncc2)nc2ccccc12)Nc1ccc(F)cc1	1%	10
CC(=O)Nc1ccc(/C(C)=N\NC(=O)CCN2CCCCC2)cc1	-13%	-6
C=CCNCc1cc(OC)c(OC2CCCC2)cc1Cl	9%	-1
c1ccc2sc(SCc3nc4c5c6c(sc5ncn4n3)CCCCC6)nc2c1	-12%	-7
Cc1cc(I)ccc1NC(=O)CN(c1ccccc1F)S(C)(=O)=O	-7%	-5
O=C(CSc1n[nH]c(-c2ccco2)n1)c1c[nH]c2ccccc12	27%	5
CCOC(=O)c1nc(NCc2cccnc2)c2ccccc2n1	-1%	1
COCCCNC(=S)Nc1ccn(Cc2c(F)cccc2Cl)n1	-10%	-9
CC(C(=O)NCc1ccc(F)cc1)(C(F)(F)F)C(F)(F)F	13%	7
COc1cccc(C(=O)NC(C)(C)C)c1OC	-4%	-4
(further entries)
SMILES	V. cholerae motility	V. cholerae motility viability
CCC(CO)NS(=O)(=O)c1cc(-c2n[nH]c(=O)c3ccccc23)ccc1C (configuration not stated)	0%	0
Clc1cccc(-c2nnc3sc(-c4cnccn4)nn23)c1	-9%	-4
CC1(c2ccccc2NC(=O)c2cccc(Cl)c2)CC1	6%	5
CCCCS(=O)(=O)Nc1ccc2ncn(C)c(=O)c2c1	16%	22
Cc1ccc2oc(=O)n(Cc3ccccc3OCc3ccccc3)c2c1	-3%	-8
CCOC(=O)C(C(=O)OCC)N(C#N)c1nc(C)cc(C)n1	3%	-6
Cn1ncc(Br)c1C(=O)Oc1ccccc1Cl	3%	-7
OC(COc1ccc2ccccc2c1)Cn1cncn1 (configuration not stated)	1%	7
Cc1cccc(C)c1NC(=O)c1cccc2c1-c1ccccc1C2=O	0%	-2
O=[N+]([O-])c1cc(CN2CCOCC2)c2cccnc2c1O	u	x
CC(C)S(=O)(=O)c1ccc(Cl)cc1	22%	-7
O=c1c2ccccc2nc(-c2ccco2)n1-c1ccc(Cl)cc1Cl	-4%	-6
COC(=O)COc1ccc(Oc2nc(NCC(C)C)nc(N3CCOCC3)n2)nn1	5%	2
FC(F)(F)c1ccccc1NC(=S)Nc1cnn(Cc2ccc(Cl)cc2Cl)c1	-16%	-6
COC(=O)c1sc(NC(=O)c2cc(-c3ccccn3)nc3ccc(Br)cc23)nc1C	-6%	-1
Cn1c(=O)c(C(=O)NCc2ccccn2)c(O)c2ccccc21	-23%	-14
COc1ccc(Cc2nc(-c3ccc(NC(=O)c4ccc(Br)o4)cc3)no2)cc1	-8%	-6
O=C(Nc1ccc([N+](=O)[O-])cc1)/C(=C\C=C\c1ccccc1)NC(=O)c1ccccc1Br	-10%	-3
C=CCn1c(CSc2nc3ccccc3s2)nnc1SCC(=O)OCC	7%	-5
CCOc1ccc(N2CN=c3s/c(=C\c4ccc(OC)cc4)c(=O)n3C2)cc1	17%	3

Filtered by structure, the compounds so far containing a tert-butyl group.
SMILES	V. cholerae motility	V. cholerae motility viability
CC(C)(C)C(=O)Nc1ccccc1NC(=O)C(C)(C)C	-6%	-5
COc1cccc(C(=O)NC(C)(C)C)c1OC	-4%	-4

The listing picks up; the three compounds before the break are reprinted first.
SMILES	V. cholerae motility	V. cholerae motility viability
O=C(Nc1ccc([N+](=O)[O-])cc1)/C(=C\C=C\c1ccccc1)NC(=O)c1ccccc1Br	-10%	-3
C=CCn1c(CSc2nc3ccccc3s2)nnc1SCC(=O)OCC	7%	-5
CCOc1ccc(N2CN=c3s/c(=C\c4ccc(OC)cc4)c(=O)n3C2)cc1	17%	3
COC(=O)c1ccc(Oc2nc(Nc3ccccc3)nc(N(C)C)n2)cc1	-41%	-1
Cc1ccc(C(=O)Nc2ccccc2C(=O)O)cc1S(=O)(=O)NCc1ccccc1	4%	-2
CCOc1ccc(N2C(=O)NC(Cc3c[nH]c4ccccc34)C2=O)cc1 (configuration not stated)	-1%	1
CCOc1ccc2nc(SCC(=O)Nc3ccc(Br)cc3F)sc2c1	4%	-3
CCN(CC)C(=O)C(C)N(C#N)c1nc(SC)nc(N(C)C)n1 (configuration not stated)	-1%	-4
CC(=O)c1cn(CCCOc2ccccc2Cl)c2ccccc12	-2%	0
CCOc1ccc(C(F)(F)F)cc1N	-32%	-5
Cc1cc(C)n2c3c(c(C#N)c2n1)CCCC3	-15%	4
Cc1ccc(S(=O)(=O)CC(c2ccccc2)N2CCCC2)cc1 (configuration not stated)	5%	3
COC(=O)c1ccc(CSc2ccc(Br)cc2)cc1	-4%	2
O=C(CN1C(=O)CCC1=O)Nc1ccc(Br)c(Cl)c1	2%	-4
O=C(CCN1C(=O)c2cccc3cccc(c23)C1=O)Oc1ccc2c(c1)OCO2	-2%	-7
S=C(NCc1ccc(Cl)cc1)Nc1ccc(Br)cn1	-4%	-7
COc1ccc(-c2[nH]ncc2-c2nc(C)cs2)c(O)c1	-3%	-2
O=C(Nc1nnc(C(c2ccccc2)c2ccccc2)s1)c1ncn[nH]1	-6%	-2
COc1cc(SC)ccc1C(=O)Nc1nnc(C(F)(F)F)s1	-4%	9
CC1=C(C(=O)Nc2cccnc2)C(c2ccccn2)C2=C(CC(C)(C)CC2=O)N1 (configuration not stated)	13%	2
Cc1cc(C)c(S(=O)(=O)n2cc(Br)cn2)c(C)c1	2%	1
O=C1OCC2=C1C(c1ccc3c(c1)OCO3)Sc1ccccc1N2 (configuration not stated)	6%	4
CCc1nc(C)ccc1OCC(=O)O	6%	22
CN(C)C=Nc1ccc(S(=O)(=O)N(C)c2nccs2)cc1	-5%	2
COc1ccc(NC(=S)c2ccncc2)cc1	7%	-3
Cc1ccc(-n2nnnc2SCC(=O)Nc2nccs2)cc1Cl	7%	3
CCC(C)(c1ccccc1)c1c[nH]c2ccccc12 (configuration not stated)	59%	18
CC(C)(C)C(=O)NC(=S)Nc1ccc(F)c(Cl)c1	13%	5
COc1ccc(S(=O)(=O)N2CCOCC2)cc1[N+](=O)[O-]	5%	-1
COCCCn1cnc2cc([N+](=O)[O-])ccc21	66%	21
N#Cc1ccc(C(=O)Nc2ccc(N3CCN(C(=O)c4cccs4)CC3)cc2)c(F)c1	7%	0
Cc1cc(C)c(C)c(OCC(=O)Nc2cccc(C)n2)c1	-18%	-8
CC(C)(C)c1cn2c3ccccc3nc2n1CCO	5%	2

Complete entries from above.
Results for Cc1ccc(-n2nnnc2SCC(=O)Nc2nccs2)cc1Cl : V. cholerae motility: 7%; V. cholerae motility viability: 3
Results for COCCCn1cnc2cc([N+](=O)[O-])ccc21 : V. cholerae motility: 66%; V. cholerae motility viability: 21

(further entries)
SMILES	V. cholerae motility	V. cholerae motility viability
Cc1ccc(N2C(=O)CC(C3=C(N4CCOCC4)CCCC3)C2=O)cc1 (configuration not stated)	5%	6
Cc1nc(CSc2nnc3c(C)cc4ccccc4n23)cs1	-4%	-5
Cc1cc(C)nc(NC(=S)Nc2ccc3c(c2)OCO3)n1	11%	-8
CN(C)c1oc(COc2ccc(Br)cc2)nc1C#N	11%	-1
O=C(Cn1cnc2ccccc2c1=O)c1ccc(Br)cc1	-18%	-9
CC(C)(C)SCCNC(=S)Nc1ccccc1	33%	5

A portion of the library. The share of hits here may be higher or lower than overall.
